Bioassay records deposited in PubChem by ICCB-Longwood Screening Facility, Harvard Medical School.
PV pol inh – poliovirus RNA polymerase inhibition | poliovirus polymerase elongation, fluorescence polarization; active compounds read low | 150,000 tested, 0.66% active | AID 588519 | % elongation, % (compound at 16.7 µg/mL); in the data active = % elongation below about 90%; note: some results filed as inactive read as strong as hits
Target sequence (P03300 1749-2209 limits assumed): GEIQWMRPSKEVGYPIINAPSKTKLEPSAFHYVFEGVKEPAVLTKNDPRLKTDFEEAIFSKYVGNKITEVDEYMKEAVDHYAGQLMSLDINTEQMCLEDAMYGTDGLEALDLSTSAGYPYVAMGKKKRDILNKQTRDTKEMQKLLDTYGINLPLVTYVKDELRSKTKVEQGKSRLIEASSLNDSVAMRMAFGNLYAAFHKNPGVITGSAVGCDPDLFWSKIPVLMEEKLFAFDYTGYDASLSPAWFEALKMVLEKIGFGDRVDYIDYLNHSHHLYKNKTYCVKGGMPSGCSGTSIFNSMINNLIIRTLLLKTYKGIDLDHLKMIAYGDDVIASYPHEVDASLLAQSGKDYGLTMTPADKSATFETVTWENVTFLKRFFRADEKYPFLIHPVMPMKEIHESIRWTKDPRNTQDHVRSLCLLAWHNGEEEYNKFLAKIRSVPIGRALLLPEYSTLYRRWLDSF
PV pol inh intensity – recorded beside PV pol inh, whose call it bears; % elongation; measured here: total intensity read-out; formula for this scale not given here;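 total fluorescence in place of polarization; lower means less elongation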
Starred values were filed as active, the others as inactive.

What do the screens show for `CCc1ccccc1NC(=O)[C@H](Cc1ccccc1)N1Cc2ccccc2C1=O`?
PV pol inh: 111; PV pol inh intensity: 111

What do the screens show for `CCCN(C(=O)c1cc2c(=O)oc3ccccc3c2s1)c1ccccc1C`?
PV pol inh: 101; PV pol inh intensity: 103

What do the screens show for `O=C(CCCCCn1c(=O)[nH]c2ccccc2c1=O)N1CCN(c2cccc(C(F)(F)F)c2)CC1`?
PV pol inh: 106; PV pol inh intensity: 111

How did CCN(Cc1ccccc1)Cc1c(O)ccc2c(=O)c(-c3ccc(Cl)cc3Cl)coc12 do in these assays?
PV pol inh: 101; PV pol inh intensity: 103

How did Cc1ccn2c(=O)cc(COc3ccc(NC(=O)C(C)(C)C)cc3)nc2c1 do in these assays?
PV pol inh: 113; PV pol inh intensity: 117

What do the screens show for `CCOC(=O)c1ccc(NC(=O)c2oc3c(c2C)-c2nn(Cc4ccccc4Cl)cc2CC3)cc1`?
PV pol inh: 100; PV pol inh intensity: 107

Results for CCc1ccc(OCC(=O)NCC(c2ccc(Cl)cc2)N2CCOCC2)cc1 (configuration not stated) ?
PV pol inh: 99; PV pol inh intensity: 93

Results for CCOc1ccccc1NC(=O)Cn1c(=O)n(-c2ccc(F)cc2)c(=O)c2sc3ccccc3c21 ?
PV pol inh: 104; PV pol inh intensity: 109

How did CCOC(=O)c1c(C)[nH]c(C)c1S(=O)(=O)N(C)CC(=O)N1CCN(c2cccc(Cl)c2)CC1 do in these assays?
PV pol inh: 104; PV pol inh intensity: 109

How did Cc1cccc(N2CCN(CCNC(=O)Nc3ccc(Cl)cc3)CC2)c1C do in these assays?
PV pol inh: 107; PV pol inh intensity: 108

How did CCN(CC)c1ccc(NC(=O)Cn2nc3c(cc2=O)CCCC3)c(C)c1 do in these assays?
PV pol inh: 106; PV pol inh intensity: 107

How did CCOC(=O)c1ccc(-n2c(CCC(=O)O)ccc2-c2ccccc2)cc1 do in these assays?
PV pol inh: 100; PV pol inh intensity: 97

Results for CCCCSc1nc(-c2cccc(OC)c2)nc2c1Cc1c(CO)cnc(C)c1O2 ?
PV pol inh: 111; PV pol inh intensity: 111

What do the screens show for `Cc1ccc(Cl)cc1N1CCN(C(=O)c2ccc3c(c2)CCN3S(=O)(=O)c2ccccc2)CC1`?
PV pol inh: 112; PV pol inh intensity: 106

How did CC(C)(C)OC(=O)N1CCC(c2nnc(SCc3cccc(Cl)c3)o2)CC1 do in these assays?
PV pol inh: 102; PV pol inh intensity: 103

A draw from above in order of heavy-atom count, rising.
How did Cc1cccc(N2CCN(CCNC(=O)Nc3ccc(Cl)cc3)CC2)c1C do in these assays?
PV pol inh: 107; PV pol inh intensity: 108

Results for CCc1ccc(OCC(=O)NCC(c2ccc(Cl)cc2)N2CCOCC2)cc1 (configuration not stated) ?
PV pol inh: 99; PV pol inh intensity: 93

Results for CCCCSc1nc(-c2cccc(OC)c2)nc2c1Cc1c(CO)cnc(C)c1O2 ?
PV pol inh: 111; PV pol inh intensity: 111

How did CCN(Cc1ccccc1)Cc1c(O)ccc2c(=O)c(-c3ccc(Cl)cc3Cl)coc12 do in these assays?
PV pol inh: 101; PV pol inh intensity: 103

What do the screens show for `Cc1ccc(Cl)cc1N1CCN(C(=O)c2ccc3c(c2)CCN3S(=O)(=O)c2ccccc2)CC1`?
PV pol inh: 112; PV pol inh intensity: 106

What do the screens show for `CCOC(=O)c1ccc(NC(=O)c2oc3c(c2C)-c2nn(Cc4ccccc4Cl)cc2CC3)cc1`?
PV pol inh: 100; PV pol inh intensity: 107

(more compounds)
How did CCn1c(CN2CCC(C)CC2)nc2cc(NC(=O)c3ccc([N+](=O)[O-])cc3)ccc21 do in these assays?
PV pol inh: 103; PV pol inh intensity: 104

What do the screens show for `COc1ccc(CNc2nc(-c3ccc(Cl)cc3)nn2C(=O)c2ccccc2)cc1`?
PV pol inh: 103; PV pol inh intensity: 105

How did CCn1nc(C)c2c(-c3ccccc3)cc(=O)n(C(C)C(=O)NCCc3ccc(Cl)cc3)c21 (configuration not stated) do in these assays?
PV pol inh: 104; PV pol inh intensity: 108

Results for CCCCN(CC)CCNC(=O)c1cn(C)c(=O)c2c1c1ccccc1n2C ?
PV pol inh: 110; PV pol inh intensity: 112

Results for Cc1cccc(NC(=O)c2sc(-n3nc(C)c(CCC(C)C)c3C)nc2C)c1 ?
PV pol inh: 107; PV pol inh intensity: 109

How did Cc1cccc(CNC(=O)CCCN2C(=O)c3cccnc3Oc3ccccc32)c1 do in these assays?
PV pol inh: 110; PV pol inh intensity: 111

How did CCCCN(C)C(=O)C(Cc1ccccc1)NS(=O)(=O)c1ccc2c(c1)c(=O)n(C)c(=O)n2C (configuration not stated) do in these assays?
PV pol inh: 101; PV pol inh intensity: 95

How did Cn1c(=O)oc2cc(S(=O)(=O)NC(CC(=O)O)c3cccc(Br)c3)ccc21 (configuration not stated) do in these assays?
PV pol inh: 105; PV pol inh intensity: 105

How did CCOc1ccc(C(=O)Nc2cc3c(cc2N2CCCC2)n(C)c(=O)c(=O)n3C)cc1OCC do in these assays?
PV pol inh: 105; PV pol inh intensity: 106

What do the screens show for `CCOC(=O)c1cc(S(=O)(=O)Nc2ccccc2)[nH]n1`?
PV pol inh: 105; PV pol inh intensity: 111

Results for COC(=O)CC1Oc2ccc(Cl)cc2-n2cc(-c3ccc(F)cc3)nc21 (configuration not stated) ?
PV pol inh: 99; PV pol inh intensity: 101

What do the screens show for `Cn1cc(S(=O)(=O)N2CCCCC2)cc1C(=O)NCc1ccc(Cl)cc1`?
PV pol inh: 103; PV pol inh intensity: 106

How did COc1ccc(S(=O)(=O)Nc2cc3c(cc2NCc2ccccc2)n(C)c(=O)n3C)cc1 do in these assays?
PV pol inh: 99; PV pol inh intensity: 105

What do the screens show for `CSc1ccc(CNC(=O)c2ccc(NC(=O)c3nsc4ccccc34)cc2)cc1`?
PV pol inh: 104; PV pol inh intensity: 100

How did Cc1nnc(NC(=O)CSc2nccn2-c2ccc(Cl)cc2)s1 do in these assays?
PV pol inh: 109; PV pol inh intensity: 97

Results for CCOc1ccc2nc(N3CCCC(C(=O)NCc4ccc(OC)cc4)C3)sc2c1 (configuration not stated) ?
PV pol inh: 110; PV pol inh intensity: 114

How did CSc1cccc(NC(=O)C2CCCN(C(=O)c3cnn(-c4ccc(F)cc4)c3-n3cccc3)C2)c1 (configuration not stated) do in these assays?
PV pol inh: 101; PV pol inh intensity: 105

Results for CC(=O)N1CCCc2ccc(NS(=O)(=O)c3cccc(Cl)c3)cc21 ?
PV pol inh: 113; PV pol inh intensity: 110

Results for CCN(CC)c1ccc(NC(=O)CN2CCN(c3ccccc3F)CC2)cc1 ?
PV pol inh: 106; PV pol inh intensity: 105

How did CCOc1ccc(CCNC(=O)c2cnc3sc(N4CCCCC4)nn3c2=O)cc1 do in these assays?
PV pol inh: 109; PV pol inh intensity: 102

How did CCCCC(=O)Nc1cc(-c2nc3cccnc3s2)ccc1C do in these assays?
PV pol inh: 105; PV pol inh intensity: 105

What do the screens show for `Cc1ccc(C)c(CN2C(=O)C3(c4ccccc42)N(c2ccc(Cl)cc2)C(=O)CS3(=O)=O)c1` (configuration not stated)?
PV pol inh: 101; PV pol inh intensity: 105

Results for COc1ccccc1N1CCN(C(=O)COc2ccccc2C#N)CC1 ?
PV pol inh: 101; PV pol inh intensity: 107

Results for COc1ccc(-c2cn3nc(N4CCCC(C(=O)Nc5cc(Cl)ccc5OC)C4)sc3n2)cc1 (configuration not stated) ?
PV pol inh: 109; PV pol inh intensity: 107

Results for Cc1cccc(OCc2ccc(-c3nc(C#N)c(NCCN(C)C)o3)o2)c1 ?
PV pol inh: 102; PV pol inh intensity: 96

What do the screens show for `COc1cc(C2C(C(=O)OCC(C)C)=C(C)N=C3SCCC(=O)N32)ccc1OCc1ccccc1` (configuration not stated)?
PV pol inh: 103; PV pol inh intensity: 106

How did Cc1ccc(CNC(=O)c2cc(-c3ccc(C)cc3)nc3n[nH]c(-c4ccc(F)cc4)c23)cc1 do in these assays?
PV pol inh: 107; PV pol inh intensity: 109

How did O=C(CC(c1cccs1)N1Cc2ccccc2C1=O)Nc1cccc(F)c1 (configuration not stated) do in these assays?
PV pol inh: 108; PV pol inh intensity: 109

What do the screens show for `Cc1nc2sccn2c(=O)c1S(=O)(=O)Nc1ccc(N2CCN(C(=O)C(C)C)CC2)cc1`?
PV pol inh: 106; PV pol inh intensity: 108

How did CCN1CCSc2ccc(C(=O)NC(C)c3ccccc3)cc21 (configuration not stated) do in these assays?
PV pol inh: 107; PV pol inh intensity: 106

A run of entries of the results above:
How did CSc1cccc(NC(=O)C2CCCN(C(=O)c3cnn(-c4ccc(F)cc4)c3-n3cccc3)C2)c1 (configuration not stated) do in these assays?
PV pol inh: 101; PV pol inh intensity: 105

Results for CC(=O)N1CCCc2ccc(NS(=O)(=O)c3cccc(Cl)c3)cc21 ?
PV pol inh: 113; PV pol inh intensity: 110

Results for CCN(CC)c1ccc(NC(=O)CN2CCN(c3ccccc3F)CC2)cc1 ?
PV pol inh: 106; PV pol inh intensity: 105

How did CCOc1ccc(CCNC(=O)c2cnc3sc(N4CCCCC4)nn3c2=O)cc1 do in these assays?
PV pol inh: 109; PV pol inh intensity: 102

Looked up by structure from the entries so far (two):
How did Cc1nnc(NC(=O)CSc2nccn2-c2ccc(Cl)cc2)s1 do in these assays?
PV pol inh: 109; PV pol inh intensity: 97

What do the screens show for `O=C(CCCCCn1c(=O)[nH]c2ccccc2c1=O)N1CCN(c2cccc(C(F)(F)F)c2)CC1`?
PV pol inh: 106; PV pol inh intensity: 111

New compounds follow.
Results for CCOc1ccccc1CNCCCSc1nnnn1C ?
PV pol inh: 108; PV pol inh intensity: 111

Results for CCOC(=O)c1noc2ncn(CC(=O)Nc3ccc(OC)c(Cl)c3)c(=O)c12 ?
PV pol inh: 103; PV pol inh intensity: 107

Results for CCCCN(CC)CCCNC(=O)c1c(C)oc2ncnc(N3CCOCC3)c12 ?
PV pol inh: 104; PV pol inh intensity: 107

Results for CC(C)c1ccc(NC(=O)C2Cc3ccccc3N2C(=O)c2ccccc2)cc1 (configuration not stated) ?
PV pol inh: 105; PV pol inh intensity: 106

Results for COc1ccccc1CNC(=O)c1cc2c(s1)-c1ccccc1OC2 ?
PV pol inh: 100; PV pol inh intensity: 109

What do the screens show for `Cc1cccc(N(CC(=O)NCCSCc2ccccc2)S(=O)(=O)c2ccccc2)c1C`?
PV pol inh: 107; PV pol inh intensity: 111

What do the screens show for `Cc1cc(-c2ccc(C)c(S(=O)(=O)NCc3cccc(Br)c3)c2)on1`?
PV pol inh: 114; PV pol inh intensity: 113

Results for COc1ccc(CNC(=O)CCCn2nc(C)c3sc4ccccc4c3c2=O)cc1OC ?
PV pol inh: 111; PV pol inh intensity: 110

Results for Cc1ccc(OC(=O)c2cc(-c3ccccc3)nc3ccc(C)cc23)cc1 ?
PV pol inh: 108; PV pol inh intensity: 111

Results for O=S(=O)(Nc1cccc(-c2ccc(N3CCCCCC3)nn2)c1)c1ccccc1 ?
PV pol inh: 104; PV pol inh intensity: 97

How did COC(=O)c1ccc(NC(=O)CC2C(=O)N(c3ccc(Cl)cc3)C(=O)N2Cc2ccco2)cc1 (configuration not stated) do in these assays?
PV pol inh: 105; PV pol inh intensity: 108

What do the screens show for `O=C(NCCc1ccccc1)c1nc(-c2ccc(Cl)cc2)n2c1CCCCC2`?
PV pol inh: 104; PV pol inh intensity: 105

What do the screens show for `CCCCOc1ccccc1C(=O)N(Cc1ccc(C)o1)C1CCS(=O)(=O)C1` (configuration not stated)?
PV pol inh: 111; PV pol inh intensity: 112

Results for CCOc1ccccc1C(=O)N1CCc2cc(OC)c(OC)cc2C1COc1ccc2c(C)cc(=O)oc2c1 (configuration not stated) ?
PV pol inh: 104; PV pol inh intensity: 104

Results for CCc1nc2ccc(C(=O)N3CCN(c4ccccc4F)CC3)cc2nc1CC ?
PV pol inh: 107; PV pol inh intensity: 106

Results for CCCCSc1nnc2c(n1)OC(c1ccc(Br)s1)N(C(C)=O)c1ccccc1-2 (configuration not stated) ?
PV pol inh: 106; PV pol inh intensity: 108

Results for COC(=O)c1c(NC(=O)c2nc(SC)ncc2Cl)sc2c1CCCC2 ?
PV pol inh: 121; PV pol inh intensity: 119

What do the screens show for `CCCSC1=NC2(CCN(C(=O)NC3CCCCC3)CC2)N=C1c1ccc(C)cc1`?
PV pol inh: 107; PV pol inh intensity: 108

How did Cc1cc(F)ccc1S(=O)(=O)Nc1ccc2c(c1)CCCN2C(=O)c1cccs1 do in these assays?
PV pol inh: 108; PV pol inh intensity: 102

What do the screens show for `COc1ccc(C)cc1NCc1nnc2n1CCCCC2`?
PV pol inh: 102; PV pol inh intensity: 109

What do the screens show for `O=c1oc2c(CN3CCCC3)c(O)ccc2cc1-c1ccccc1`?
PV pol inh: 104; PV pol inh intensity: 106

What do the screens show for `COCc1cc(C)nc2sc3c(c12)NC(c1ccc(NC(C)=O)cc1)N(c1ccc(C)cc1)C3=O` (configuration not stated)?
PV pol inh: 108; PV pol inh intensity: 105

What do the screens show for `CCN1C(=O)CC(C(=O)Nc2ccc(OC)cc2)SC1=Nc1ccc(C)c(C)c1` (configuration not stated)?
PV pol inh: 103; PV pol inh intensity: 104

What do the screens show for `CCC1CN(C(=O)N2CCC(C(=O)NCc3ccco3)CC2)c2cc(C)ccc2O1` (configuration not stated)?
PV pol inh: 101; PV pol inh intensity: 106

How did COc1ccc(-c2noc(N(c3nc(-c4ccc(OC)c(OC)c4)no3)c3ccccc3OC)n2)cc1OC do in these assays?
PV pol inh: 105; PV pol inh intensity: 106

How did COc1ccc(Cl)cc1NC(=O)NCc1noc2ccccc12 do in these assays?
PV pol inh: 106; PV pol inh intensity: 113

What do the screens show for `Cc1nc2sccn2c(=O)c1S(=O)(=O)Nc1ccc(N2CCN(C)CC2)cc1`?
PV pol inh: 108; PV pol inh intensity: 111

What do the screens show for `CCOC(=O)c1c(C)[nH]c(CCC(=O)NCCCN2CCN(c3cccc(Cl)c3)CC2)c1C`?
PV pol inh: 108; PV pol inh intensity: 118

Results for c1ccc(CSc2nnc(C3CCNCC3)o2)cc1 ?
PV pol inh: 110; PV pol inh intensity: 114

Results for Cc1c(Cl)cccc1-c1ccc(C(=O)Nc2ccc(F)cc2)o1 ?
PV pol inh: 106; PV pol inh intensity: 109

An excerpt; the hit share may differ from the screen's.
